# PINK1 expr mod: PINK1 expression modulation | PINK1 immunofluorescence, high-content cytometry, 24 h | Potency, µM (series often up to 76.6 µM), for the others: top-dose activation (PINK1 increase), most hits filed as activators | 410,000 compounds, 0.2% hits; active = well fitted activation curve with a large enough effect; inconclusive = small, poorly fitted or top-dose-only effect; inactive = flat fitted curve, though single readings scatter; cell line not stated here;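 also: potency is read from the fitted curve at half-maximal effect; % of control where 0% means no effect; nearly all actives have a fitted effect of over 65% in size; a mitochondrial uncoupler was the plate control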
#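 Decision-based qHTS: stable cells, 24 h exposure to five compound concentrations, CCCP as control. Fixed cells stained for PINK1 plus nuclear, mitochondrial and cell markers, cytometer read.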
# Six1-Eya2 inh: Six1/Eya2 interaction inhibition; Q15475+O00167; AlphaScreen GST-Six1/His-Eya2 binding, biochemical; active compounds read low; control for the full effect not named in the record; activity change, % (test concentration not listed); 360,000 compounds, 0.56% hits; in the data active = activity change below about -65%; inconclusive = about -30% to -65%; inactive = above about -30%; also: % is scaled to controls: 0 for no effect and ±100 for the full control effect
#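 AlphaScreen luminescence read after one hour at 37 °C in darkness. Pin-transferred compounds met GST-Six1 and His-Eya2 protein (5X stock 250 nM/500 nM) plus glutathione donor and Ni-chelate acceptor beads (5X, 50 ug/mL).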
# TRPML1 inh: human mucolipin-1 channel inhibition | TRPML1-inducible cells, Ca2+ dye fluorescence, FDSS; active compounds read low; inhibition of EC80 agonist-evoked calcium signal | AID 624415 | 390,000 compounds, 0.02% hits | activity change, negative = inhibition, % (concentration not given with the values) | Q9GZU1; in the data active means activity change below about -50%; inconclusive means about -30% to -50%; inactive means above about -30%;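 also: stimulus is agonist 54-4 at its EC80 concentration; % is scaled to controls: 0 for no effect and ±100 for the full control effect; the text of the record puts the active cut at -80%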
# Target sequence (Q9GZU1 whole entry, looked up): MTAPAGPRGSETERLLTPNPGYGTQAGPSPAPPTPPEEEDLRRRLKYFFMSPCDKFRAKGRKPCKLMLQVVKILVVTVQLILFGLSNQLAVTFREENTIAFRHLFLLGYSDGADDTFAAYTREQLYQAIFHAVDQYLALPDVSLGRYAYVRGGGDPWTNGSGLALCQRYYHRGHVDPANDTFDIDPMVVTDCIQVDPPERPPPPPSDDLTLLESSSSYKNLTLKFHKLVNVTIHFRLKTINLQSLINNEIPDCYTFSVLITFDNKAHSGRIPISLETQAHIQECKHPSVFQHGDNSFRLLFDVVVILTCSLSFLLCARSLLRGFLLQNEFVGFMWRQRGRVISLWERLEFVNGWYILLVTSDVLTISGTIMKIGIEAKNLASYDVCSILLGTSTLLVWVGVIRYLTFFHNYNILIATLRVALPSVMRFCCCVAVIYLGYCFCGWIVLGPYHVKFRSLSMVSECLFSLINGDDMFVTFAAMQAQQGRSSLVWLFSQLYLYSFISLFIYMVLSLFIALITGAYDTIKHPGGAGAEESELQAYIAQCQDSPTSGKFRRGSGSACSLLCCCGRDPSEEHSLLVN
#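 Tet-induced TRPML1-DL cells loaded with Ca8 no-wash calcium dye were read kinetically on FDSS. Compound addition was followed by EC80 agonist 54-4 (4 uM final); inhibition was read over 110 s.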
# D2 potentiator: positive allosteric modulators of human D2 dopamine receptor; P14416; DiscoveRx D2 beta-arrestin cells, luminescence, 90 min; 100% = 57 uM dopamine signal; potentiation, % (no concentration beside the values); 360,000 compounds, 0.23% hits; AID 624464; active = potentiation of 50% or more; inconclusive = 30% to 50%; inactive = 30% or less;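 also: compound concentration not given in the record; tested on top of an EC20 dose of dopamine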
# Target sequence (P14416 whole entry, looked up): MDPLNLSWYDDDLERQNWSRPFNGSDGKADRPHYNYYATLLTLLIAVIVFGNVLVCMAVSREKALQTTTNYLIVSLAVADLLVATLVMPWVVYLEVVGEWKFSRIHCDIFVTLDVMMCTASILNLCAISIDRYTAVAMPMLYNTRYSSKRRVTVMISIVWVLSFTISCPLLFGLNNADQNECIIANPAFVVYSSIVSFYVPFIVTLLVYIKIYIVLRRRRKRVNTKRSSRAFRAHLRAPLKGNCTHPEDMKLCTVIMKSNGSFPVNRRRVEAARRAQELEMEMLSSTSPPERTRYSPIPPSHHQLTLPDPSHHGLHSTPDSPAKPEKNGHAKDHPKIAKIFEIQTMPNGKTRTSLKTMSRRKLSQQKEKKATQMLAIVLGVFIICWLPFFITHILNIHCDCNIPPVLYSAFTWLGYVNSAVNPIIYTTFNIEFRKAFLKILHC
#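 D2 cells co-treated with compound plus 50 nM dopamine (EC20) for 90 min at 37 deg C to detect potentiation. Beta-arrestin recruitment was read as enzyme-fragment luminescence after 1 h at ambient temperature. Full response was set by 57 uM dopamine.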
# D2 ag: human D2 receptor agonism in beta-arrestin assay. P14416. DiscoveRx PathHunter D2 beta-arrestin, luminescence, 90 min; 100% = 57 uM dopamine signal. activation, % (no concentration beside the values). 360,000 compounds, 0.084% hits. AID 624465; in the data active = activation above about 40%; inconclusive = about 15% to 40%; inactive = below about 15%; also: compound concentration not given in the record; the text of the record calls up to 30% inactive
#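 Agonist mode: compounds alone added to overnight-plated D2 PathHunter cells for 90 min at 37 C, with 57 uM final dopamine (EC100) defining full response. Beta-arrestin recruitment detected by chemiluminescent reagent, read after 1 h at ambient temperature.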
# TRPML1 agonist: human mucolipin-1 channel agonism. Q9GZU1. TRPML1-expressing cells, Ca2+ dye fluorescence, FDSS; host cell line not named in the record; reference of the full effect not given here. activation, % (no concentration beside the values). 410,000 compounds, 0.12% hits. AID 624414; in the data active = activation above about 50%; inconclusive = about 30% to 50%; inactive = below about 30%; also: 0% is about no effect; the text of the record puts the active cut at 80%
#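 Tetracycline-induced TRPML1-DL cells are seeded and incubated overnight before loading with a no-wash Ca2+ dye and quencher. Agonist activity is taken from the 110 s fluorescence read following compound pin-transfer on an FDSS, before EC80 54-4 challenge.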
# Active calls of the source: *; ? = inconclusive; · = no result given; & = joins results of further samples; [ ] = remark or other dose. No enrichment for hits; overall some 1% were active at least once.
SMILES,PINK1 expr mod,Six1-Eya2 inh,TRPML1 inh,D2 potentiator,D2 ag,TRPML1 agonist
Cc1ccc(C(C[N+](=O)[O-])c2c(C)[nH]n(-c3ccccc3)c2=O)cc1 (stereo unspecified),3.3%,-8,-15,-30,-10,1.6
O=C1SC(Cc2ccccc2)C(=O)N1c1ccccc1 (stereo unspecified),1.4%,4,8,-7,-5.5,-0.4
O=C(NNc1nc2cc3c(cc2s1)OCO3)c1ccc(F)cc1,1.8%,0,-2,-25,?,0.2
O=C(CN1CCCCCC1)Nc1ccccc1,-2.6%,8,30,-6,0.5,2.1
CC1(C)CC(NC(=O)C(=O)NCCc2ccc(Cl)cc2)CC(C)(C)N1,3.3%,-15,11,-8,-18,0.2
O=C(NCc1nc2ccccc2[nH]1)C1=C[C@H](C2CCCCC2)C[C@H](OCCCCO)O1,2.0%,1,-9,-19,-2.6,-0.3
COc1ccc(C2=NS(=O)(=O)N(C)C(C(=O)N(C)Cc3ccccc3)=C2)cc1,-0.9%,-1,-5,-2,-4.4,1.4
Cc1ccc(C)c(S(=O)(=O)Nc2ccc(C(=O)N3CCOCC3)cc2)c1,1.7%,-9,-7,-11,-3.7,-0.3
CCN(CC(=O)Nc1ccccc1OC)C(=O)/C=C/c1cccs1,0.6%,6,-1,5,-3.2,-0.5
Cc1ccc([N+](=O)[O-])cc1NC(=O)C(C)Sc1nnc(C)n1CC1CCCO1 (stereo unspecified),-0.2%,-3,-8,-14,-3.3,-0.5
COc1ccc(CCN2CC(C(=O)NC3CCCCC3)CC2=O)cc1OC (stereo unspecified),0.0%,1,14,0,-5.8,-0.6
OC[C@@H]1CN(CCc2ccccc2)C[C@H](n2cnc3c(NCc4ccc(F)cc4)ncnc32)O1,1.5%,-6,·,-9,-4.6,0.4
Cc1cc(C(=O)COC(=O)c2ccc[nH]c2=O)c(C)n1-c1ccccc1,0.7%,-2,11,-23,-2.9,0.5
COc1ccc(N(C(=O)CNC(=O)c2cccs2)C(C(=O)NCC2CCCO2)c2ccccc2)cc1 (stereo unspecified),0.2%,0,-22,-2,4.1,1.1
COc1ccc(-c2cc(C(F)(F)F)n3ncc(C(=O)NCC4CCCO4)c3n2)cc1 (stereo unspecified),2.1%,1,-2,7,-0.6,-0.1
Cc1ccccc1NC(=S)N/N=C/C(C)c1ccccc1 (stereo unspecified),0.4%,-1,4,-4,5.7,-1.1
CCOC(=O)N1CCC(N(C(=O)Nc2ccc(CC)cc2)C(C)CC)CC1 (stereo unspecified),?,5,-14,-8,-0.4,0.7
C=CCNC(=S)NN=C1CCC(c2ccccc2)CC1 (stereo unspecified),-2.8%,-9,15,-5,-4.7,0.2
COc1ccc(N(CC(=O)NC2CCCCCC2)S(=O)(=O)c2c(C)nn(C)c2C)cc1,-4.1%,4,22,-6,-0.8,-1.3
CC(=O)OCC(=O)Nc1ccccc1OC(F)F,1.5%,5,7,0,2.5,0.4

# 2 compounds from above, reduced to TRPML1 agonist and D2 ag:
mol | TRPML1 agonist | D2 ag
Cc1ccccc1NC(=S)N/N=C/C(C)c1ccccc1 (stereo unspecified) | -1.1 | 5.7
CCOC(=O)N1CCC(N(C(=O)Nc2ccc(CC)cc2)C(C)CC)CC1 (stereo unspecified) | 0.7 | -0.4

# The listing picks up with the 2 entries that preceded the break.
SMILES,PINK1 expr mod,Six1-Eya2 inh,TRPML1 inh,D2 potentiator,D2 ag,TRPML1 agonist
COc1ccc(N(CC(=O)NC2CCCCCC2)S(=O)(=O)c2c(C)nn(C)c2C)cc1,-4.1%,4,22,-6,-0.8,-1.3
CC(=O)OCC(=O)Nc1ccccc1OC(F)F,1.5%,5,7,0,2.5,0.4
O=C1c2[nH]nc(-c3ccccc3O)c2C(c2ccc(Cl)cc2)N1Cc1ccco1 (stereo unspecified),0.3%,·,24,·,·,2.9
C/C(=N\NC(=S)Nc1ccc(C)c(C)c1)c1ccc(N2CCOCC2)cc1,3.0%,?,22,-8,0.7,1.2
COc1ccc(C(=O)OCC(=O)NC23CC4CC(CC(C4)C2)C3)c(OC)c1OC,-2.6%,-2,-3,-20,0.8,0.3
CC(=O)C1C(=O)C=C(c2ccco2)CC1c1ccccc1 (stereo unspecified),-1.7%,-1,-10,-21,-3.3,0.1
COC(=O)c1c(NC(=O)C2CC(=O)NN2Cc2ccccc2)sc(C)c1C (stereo unspecified),2.5%,3,-14,-5,-1.2,0.1
COc1cccc(/C=N/n2c(N)c(S(=O)(=O)c3cccs3)c3nc4ccccc4nc32)c1,·,-8,3,-2,-3.1,-0.6
O=C(C1CCCO1)N1CCN(C(=S)Nc2ccc(Cl)cc2)CC1 (stereo unspecified),0.1%,9,-21,0,-5.7,0.4
O=C(C1COc2ccccc2O1)N(Cc1cccnc1)c1nc2ccc(F)cc2s1 (stereo unspecified),2.9%,·,-12,·,·,1.6
Cc1ccc(C)c(N2CCN(C(=O)CN3CCSc4ccc(S(=O)(=O)N(C)C)cc43)CC2)c1,-0.1%,·,60,·,·,1.5
CCOc1c2ccc(C(=O)N[C@H](C)C3CCCCC3)cc2nn1CC,1.2%,2,-18,-16,-2.4,0.8
COc1ccccc1NC(=O)CCn1cnc2onc(-c3ccc(F)cc3)c2c1=O,-0.8%,·,-4,·,·,-1.2
N=c1n(N)c2ccccc2n1CC(=O)c1ccc(Br)cc1,0.7%,7,11,-12,-0.8,-0.1
COc1ccc(OC)c(NC(=O)C2(C)CCN2Cc2ccc(SC)cc2)c1 (stereo unspecified),1.2%,-14,·,-7,4.1,-0.8
CCOC(=O)c1c(NC(C)=O)sc2c(OCC(O)CN(CC)CC)c(Br)ccc12 (stereo unspecified),-4.6%,12,-18,-6,-5.6,0.7
CCOc1ccc(C(C)=O)cc1NC(=O)/C=C\C(=O)O,0.1%,3,-13,-6,4.9,1.6
CCOc1ccc(S(=O)(=O)N2CCN(C(=O)CN3C(=O)NC4(CCCC4)C3=O)CC2)cc1,5.2%,4,-2,3,0.1,-0.4
C[C@H]1CN=C(N(C)C)N1CCCCc1ccccc1,0.3%,1,-10,-6,-3.9,0.7
COc1ccc(NC(=O)C(Cc2ccccc2)NS(=O)(=O)c2ccc3c(c2)CCC(=O)N3)c(OC)c1 (stereo unspecified),3.4%,·,-5,·,·,-0.9
C[C@@H]1CN([C@H](C)CO)C(=O)c2cc(NS(=O)(=O)c3ccc(F)cc3)ccc2O[C@@H]1CN(C)Cc1ccc(Cl)c(Cl)c1,0.6%,-4,19,-2,-1.2,0.4
CC1CCCCC12NC(=O)N(CC(=O)OCC(=O)N(C)C1CCCCC1)C2=O (stereo unspecified),0.0%,8,-12,-3,-4.0,-0.6

# Looked up above:
# PINK1 expr mod, OC[C@@H]1CN(CCc2ccccc2)C[C@H](n2cnc3c(NCc4ccc(F)cc4)ncnc32)O1 is entered as 1.5%
# PINK1 expr mod, Cc1ccccc1NC(=S)N/N=C/C(C)c1ccccc1 (stereo unspecified) is entered as 0.4%

# (more compounds)
SMILES,PINK1 expr mod,Six1-Eya2 inh,TRPML1 inh,D2 potentiator,D2 ag,TRPML1 agonist
Oc1ccc(C=NNC(=S)Nc2cccnc2)nc1,-6.1%,-97*,24,15,-2.5,0.0
O=C(COc1ccc(C(=O)c2ccccc2)cc1)Nc1ncccc1O,2.5%,-4,16,24,5.5,-0.7
O=C(Nc1ccccc1C(=O)OCc1cc(=O)n2ccsc2n1)c1cccc(F)c1,0.9%,·,-4,·,·,0.3
C#CCSc1nnc(-c2cc3c(C(F)(F)F)nn(C)c3s2)n1C,2.4%,0,0,6,-0.8,-0.1
Cc1cccc(-c2nnc3n2N=C(c2ccc(Br)cc2)CS3)c1,·,1,-4,9,-1.5,-0.6
O=C(NCC1CCCO1)c1ccccc1NC(=O)c1cccc2ccccc12 (stereo unspecified),1.6%,6,-15,12,0.4,0.9
CC(Nc1cc(C)cc(C)c1)=[N+](C)CCNS(=O)(=O)c1ccc(Cl)cc1,0.4%,-2,-15,-30,-4.1,0.5
COc1ccc(-c2noc(CSc3nnc(Cc4ccccc4)n3-c3cccc(C)c3)n2)cc1,?,·,-19,·,·,0.1
O=C(COc1ccccc1)Nc1ccc(S(=O)(=O)N2CCCC2)cc1,0.7%,-6,-17,-4,-0.8,-0.8
N#CC(C(=O)CCN1C(=O)C2CC=CCC2C1=O)c1nc2ccccc2[nH]1 (stereo unspecified),0.9%,12,1,5,-2.5,-0.6
CC1(C)OC(=O)C2(Cc3ccccc3N3CCCCC32)C(=O)O1 (stereo unspecified),-3.6%&-1.0%,1,-9&9,-1,3.9,1.4&0.7
Cc1cc(C)nc(N2CCN(S(=O)(=O)c3ccc(F)cc3)CC2)n1,0.9%,-5,-12,-6,-3.5,0.3
O=C(CCN1CCOCC1)N1CCCC(Nc2ccc(F)cc2)C1 (stereo unspecified),-0.3%,-1,15,1,-1.1,-0.2
Cc1ccc(CNC(=O)C(=O)NCC2OCCN2C(=O)c2cccs2)cc1 (stereo unspecified),2.9%,13,-3,-8,-0.1,0.3
Fc1ccccc1Nc1nc(Cl)nc(Cl)n1,1.2%,0,11,-4,-4.7,-0.8
CC(C)Cc1oc(C(=O)O)cc1CN,4.2%[38.3 µM],2,-14,13,-0.3,-0.3
COc1ccc2c(c1)CCC1C2CCC2(C)C(O)C(=O)CC12 (stereo unspecified),0.6%,3,44,4,-1.2,-0.4
COc1cccc(-c2nnc(-c3ccco3)o2)c1,-1.9%,5,-21,-2,-4.3,-0.6
CCCOc1cccc(CN2CCCCC2c2cccnc2)c1 (stereo unspecified),13%[38.3 µM],0,27,-3,1.8,0.6
CCSCCc1nnc(NC(=O)Nc2cccc(C(F)(F)F)c2)s1,?,3,-18,-2,-3.5,2.7
COc1ccc(C(=O)C=Cc2cccs2)c(O)c1,1.8%,6,16,-4,0.5,-1.3
O=C(CCc1nc(-c2ccc(F)cc2)no1)NCc1ccccc1CN1CCOCC1,-1.8%,2,10,-4,-3.1,1.5
COc1ccc(/C=C/C(=O)OCC(=O)NC(=O)NC(C)(C)C)cc1,0.5%,-1,11,-5,1.0,0.6
COc1ccc(/C=C2/S/C(=N/S(=O)(=O)Cc3ccccc3)NC2=O)cc1OC,0.7%,-7,38,-5,2.6,0.3
CC(=O)c1ccc(-c2cnc3c(NC=O)cc(-c4cccc(C(=O)N(C)C)c4)cn23)cc1,2.0%,-11,·,12,5.8,-1.0
O=C(COC(=O)c1ccccc1)NC1CCCC1,0.5%,-1,13,-2,-2.2,-0.6
Cc1ccnc(NC(=O)CCC(=O)N(CC(=O)NC2CCCCC2)C2CCCC2)c1,-0.2%,8,-4,-3,-0.6,0.4
C[C@H]1CN([C@@H](C)CO)C(=O)c2cc(Br)cnc2O[C@H]1CN(C)C(=O)Cc1ccccn1,0.0%,-1,-5,1,-8.1,-0.2
CC1=Nc2ccc(Br)cc2C(c2ccccc2)N1CC(=O)O (stereo unspecified),4.7%,-22,19,-17,-4.4,0.4

# Source: PubChem BioAssay (National Center for Advancing Translational Sciences (NCATS))
